Screens deposited in PubChem BioAssay by Center for Chemical Genomics, University of Michigan.
HIV TAR-Tat: HIV-1 TAR-Tat binding disruption | HIV-1 TAR RNA, Tat peptide displacement FRET; hits give high values | z-score (no concentration beside the values) | AID 1259389 | 0.6% of 100,000 active;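 note: score is relative to mean and SD of negative controls; some compounds called inactive have numbers as strong as hits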
CDC25B-CDK2 inh: human CDC25B-CDK2/CyclinA binding inhibition; HTRF CDC25B-CDK2/CyclinA binding, anti-His/anti-Flag; hits give high values; z-score (concentration not given with the values); 0.72% of 94,000 active; P30305+P24941;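 note: score is relative to mean and SD of negative controls; strong numbers were not always called active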
* marks the source's active call; other numbers are inactive results; · = no result given.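 Rule for the calls: active = z-score from 3 up in half or more of its runs; inactive = the rest.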

SMILES	HIV TAR-Tat	CDC25B-CDK2 inh
Cc1ccc(-c2nc3c4c5c(sc4ncn3n2)C(C)(C)NC(C)(C)C5)cc1	1.3	4
Cc1cc2cc(CO)c(=O)[nH]c2cc1C	-2.2	-0.16
CN1CCN(c2nc3c(c(=O)[nH]c(=O)n3C)n2CCCSc2ncccn2)CC1	0.67	-0.54
COc1ccc(S(=O)(=O)NC(c2nnc(-c3ccccc3)o2)c2ccccc2Cl)cc1OC (stereo not drawn)	0.8	·
Cn1c(=O)c2c(-c3ccccc3)n3c4ccccc4nc(-c4cccnc4)c3c2n(C)c1=O	0.37	-1.2
O=C1CCc2cc(F)ccc21	·	-0.57
NC(=O)c1c(NC(=O)c2noc3c2CCc2ccccc2-3)sc2c1CCCC2	·	-1.4
Cc1cc(=O)nc2c3ccccc3n(CC(=O)NCCC3=CCCCC3)n12	-4.3	-1.1
CCc1nc(-c2ccc(OC)c(OC)c2)cc2cc(OC)c(OC)cc12	·	0.74
CC(C)CCNC(=O)CN1C(=O)CSc2cccn2-c2ccccc21	0.44	·
Nc1nc(-c2ccc(Cl)cc2)nn1C(=O)c1ccncc1	-0.21	-0.29
COCCN1C(=O)c2[nH]nc(-c3ccccc3O)c2C1c1cccc(Br)c1 (stereo not drawn)	3.7	-0.51
O=C(CSc1nc2ncccc2[nH]1)Nc1cccc(Cl)c1	0.31	-0.42
Cc1cc(Cl)ccc1Nc1nc(N2CCOCC2)nc2c1cnn2C	0.87	·
Cc1ccc(SCC(=O)OCc2cc(=O)n3ccsc3n2)cc1	0.23	·
O=C1c2ccccc2C(=O)c2cc(NC(=O)C(Cl)(Cl)Cl)ccc21	·	16*
Cc1nn(-c2ccc(N3CCCC3)nn2)c(C)c1CCC(=O)Nc1ccc(F)c(Cl)c1	0.22	·
CCCc1cc(OC(=O)c2cccnc2Oc2ccccc2)n(C)n1	·	-1.6
O=C(Cn1cnc(S(=O)(=O)N2CCCC2)c1)N1CCN(CCOc2ccc(Cl)cc2)CC1	0.62	·
CCC(C)Nc1nc(-c2ccc(OC)cc2)nc2ccccc12 (stereo not drawn)	0.59	·
Cn1c(Cc2ccsc2)nnc1Sc1nc2ccc(Cl)cc2s1	·	0.63
Cn1c(=O)c2c(-c3ccc(Cl)cc3)n(-c3ccccc3N)cc2n(C)c1=O	0.47	-0.6
CSc1ccccc1NC(=O)COCc1cc(-c2ccco2)on1	-0.31	·
CSc1ccc(C2CC(c3ccc(Cl)cc3)Nc3nnnn32)cc1 (stereo not drawn)	2.3	·
Cc1noc(C)c1CCNC(=O)c1cnc2sc3c(n2c1=O)CCCC3	1.2	·
CC(C)(C)c1nc(SCC(=O)c2ccc([N+](=O)[O-])cc2)n[nH]1	·	0.08
O=C(Cc1ccc2c(c1)OCO2)N1CCC(c2nc3c(nnn3Cc3ccccc3F)c(=O)[nH]2)CC1	1.4	1.6
COc1ccc(-n2nc(C(=O)N3CCCC3)c3c4ccccc4n(C)c3c2=O)cc1	·	-2.9
O=C(CSc1nccn1-c1ccc(Cl)cc1)NCc1ccco1	·	-2.1
COCC(C)NC(=O)CN1C(=O)c2ccccc2S1(=O)=O (stereo not drawn)	2.4	-2.4
C=CCOC(=O)Oc1ccc2c(=O)c(Oc3cc(C)ccc3C)coc2c1	-2.3	1.7
CCCC12CN3CC(CCC)(CN(C1)C3c1ccc3c(c1)OCO3)C2=O (stereo not drawn)	·	0.28
COc1ccc(OC)c(S(=O)(=O)Nc2cccc(-c3ccc(OC)nn3)c2)c1	0.86	·
OC1(C(F)(F)F)CC(c2cc3ccccc3o2)=NN1 (stereo not drawn)	·	2.5
Clc1ccccc1/C=C/c1nn2c(-c3ccncc3)nnc2s1	0.36	-0.92
Cc1n[nH]c(C)c1Cc1cc(C(=O)NCCN2CCOCC2)sc1N1CCOCC1	-0.5	·
Cc1nc(N2CCCCC2)cc(N2CCN(C(=O)Nc3ccc(F)cc3)CC2)n1	0.69	-0.78
CCC1(C)Cc2c(c(N3CCOCC3)[nH]c(=S)c2C#N)CO1 (stereo not drawn)	·	0.35
CN(C(=O)Cn1cc(S(=O)(=O)Cc2ccccc2Cl)c2ccccc21)C1CCCCC1	-0.06	·
CCCCS(=O)(=O)CC(CS(=O)(=O)CCCC)OC(=O)c1ccc(C)cc1	·	-1.7
O=C1C2N=NN(Cc3ccccc3)C2C(=O)N1c1ccc(F)c(F)c1 (stereo not drawn)	0.72	-0.01
O=C(CN1C(=O)CSc2cccn2-c2ccccc21)N1CCCC1	0.92	·
CCCNC(=O)CCSc1nc(-c2ccc3c(c2)OCO3)cc(C(F)(F)F)n1	-0.78	-0.55
CCN(CC)S(=O)(=O)c1ccc2c(c1)N(CC(=O)Nc1cccc(C)n1)C(=O)CS2	·	0.09
Clc1cccc(-n2nnc(-c3ccccc3)n2)c1	0.66	0.61
COCCNC(=O)c1noc2c1CCc1sccc1-2	1.6	·
O=C(Cn1ncc2c1-c1ccccc1OC2)Nc1cc(F)ccc1F	0.37	-0.56
CC(NC(=O)c1ccc(C(C)(C)C)cc1)c1nc(-c2ccc(Cl)cc2)no1 (stereo not drawn)	2	-0.38
Cc1ccc(Cl)cc1-n1ncc2c(N3CCOCC3)ncnc21	2.1	·
Cc1cc(-c2ccc(S(=O)(=O)Nc3cccc(Br)c3)cc2)on1	-0.69	·
CCc1nn(C(CC)C(=O)NCc2cccs2)c(=O)c2cc3occc3n12 (stereo not drawn)	0.76	-1.7
O=C1CCCS(=O)(=O)c2ccccc21	·	-2.4
CCC(=O)OCCNc1cc(N2CCOCC2)c2noc3c2c1C(=O)c1ccccc1-3	2.7	-3
Cn1nc(C(=O)Nc2ccc(F)c(Cl)c2)c2c1-c1ccccc1OC2	1.3	-0.53
O=C1OCc2ccc(NC(=S)NCc3ccco3)cc21	·	2.4
O=C(CN1C(=O)CSc2ncccc21)NCCCN1CCOCC1	2	-1.8
O=C(CCSc1nnc2scc(-c3ccccc3)n12)Nc1nc(-c2ccccc2)ns1	1.2	1.1
O=C(COCc1cc(-c2ccc3c(c2)OCO3)on1)Nc1ccc(Br)cc1F	-1.3	·
OCc1cnc(SCc2ccc(Cl)cc2)n1Cc1ccccc1	0.34	·
CCCn1c(C(O)c2ccccc2)nc2ccccc21 (stereo not drawn)	0.02	-1.4

Further entries.
SMILES	HIV TAR-Tat	CDC25B-CDK2 inh
O=C(Nc1ccc2c(c1)OCO2)C1CCN(C(=O)c2cnn(-c3ccccc3)c2-n2cccc2)CC1	0.11	-0.83
CC(C)(OC(=O)c1ccccc1)[C@@H]1Cc2cc3ccc(=O)oc3cc2O1	-0.12	·
Cc1ccc(S(=O)(=O)c2cnc3ccccc3c2N2CCCC2)cc1C	0.73	0.08
CC(C)C(=O)NC(C)C(c1cccs1)N1CCN(C)CC1 (stereo not drawn)	·	-1.8
CCCN1CN(Cc2ccccc2)CC2=C1CC(C)(C)CC2=O	0.54	-0.63
COc1ccc(-c2nc3c(c(=O)[nH]2)Cc2cc(F)ccc2O3)cc1OC	2.4	-2.5
Cc1ccc(-c2n[nH]c3c2C(c2cccs2)NC3=O)cc1 (stereo not drawn)	1.4	·
CCCOc1ccc(C2c3c(-c4cc(C)ccc4O)n[nH]c3C(=O)N2Cc2ccco2)cc1OCC (stereo not drawn)	0.34	1
COc1cccc(=O)c2c(C)n(CC(=O)c3ccccc3)c(C)c12	-5.9	-0.12
COc1ccc(-c2cc(=O)[nH][nH]2)cc1	1.1	-3.2
CC(C)(C)C1CCc2c(sc(NC(=O)c3cccs3)c2C(=O)N2CCOCC2)C1 (stereo not drawn)	-0.25	0.37
O=C1CC(N2CCN(c3ccccc3O)CC2)C(=O)N1c1ccccc1F (stereo not drawn)	0.55	-1.3

2 of these compounds, set out differently:
Below each compound – HIV TAR-Tat | CDC25B-CDK2 inh
> CC(C)(C)C1CCc2c(sc(NC(=O)c3cccs3)c2C(=O)N2CCOCC2)C1 (stereo not drawn)
 : -0.25 | 0.37
> O=C1CC(N2CCN(c3ccccc3O)CC2)C(=O)N1c1ccccc1F (stereo not drawn)
 : 0.55 | -1.3

(further entries)
SMILES	HIV TAR-Tat	CDC25B-CDK2 inh
c1ccc(COc2ccc(Nc3cnc4ccccc4n3)cc2)cc1	2.1	-0.51
O=C(CCS(=O)(=O)c1cc2c3c(c1)CCN3C(=O)CC2)Nc1ccc2c(c1)OCO2	0.52	·
Cc1ccccc1-c1nnc(Cc2ccc3c(c2)OCO3)o1	2.6	-1.2
Cc1ccc(N2C(=O)CC(Sc3nnc(C)s3)C2=O)cc1 (stereo not drawn)	0.55	-0.11
Cc1nn(-c2cccc(Cl)c2)c2nc(-c3cccnc3)cc(C(F)(F)F)c12	0.91	-1.9
Cc1ccccc1Cn1c(=O)n(Cc2ccc3c(c2)OCO3)c(=O)c2cccnc21	-0.23	-0.84
Cn1c(=O)sc2cc(NC(=O)C3COc4ccccc4O3)ccc21 (stereo not drawn)	0.61	-2.4
CC1CCCCN1CCNC(=O)C(=O)Nc1ccc2nc3n(c(=O)c2c1)CCCCC3 (stereo not drawn)	·	-1.1
O=C(Cn1nc2c3sccc3ncn2c1=O)Nc1ccc(F)cc1	0.46	·
Cc1c(C(=O)N(CCN(C)C)Cc2ccco2)sc2nc3n(c(=O)c12)CCCCC3	0.46	·
CC(=O)N1c2ccccc2C(=O)C1N1CCC(C)CC1 (stereo not drawn)	0.49	·
Cc1ccc(S(=O)(=O)Nc2cccc(-c3nc(-c4ccccc4)co3)c2)cc1	0.51	·

The final 5 records of the part above come first, to join the parts.
SMILES	HIV TAR-Tat	CDC25B-CDK2 inh
CC1CCCCN1CCNC(=O)C(=O)Nc1ccc2nc3n(c(=O)c2c1)CCCCC3 (stereo not drawn)	·	-1.1
O=C(Cn1nc2c3sccc3ncn2c1=O)Nc1ccc(F)cc1	0.46	·
Cc1c(C(=O)N(CCN(C)C)Cc2ccco2)sc2nc3n(c(=O)c12)CCCCC3	0.46	·
CC(=O)N1c2ccccc2C(=O)C1N1CCC(C)CC1 (stereo not drawn)	0.49	·
Cc1ccc(S(=O)(=O)Nc2cccc(-c3nc(-c4ccccc4)co3)c2)cc1	0.51	·
Cc1c(C(=O)NC(C)C)oc2ccc3c(c12)C(=O)CC(C)(C)O3	·	-1.6
Cc1cc2c(s1)CCc1cc(C(=O)N3CCOCC3)sc1-2	2.2	·
CC(=O)Oc1ccc(Br)cc1C1OC(c2ccccc2)=NN1C(C)=O (stereo not drawn)	2.7	·
Cc1cc2c(cc1S(=O)(=O)N(C)CC(=O)N1CCC(N(C)CC3CCCO3)CC1)OCC(=O)N2 (stereo not drawn)	1.3	·
CC1=C(C(=O)N2CCCCC2)C(c2ccc3c(c2)OCO3)C2=C(CC(C)(C)CC2=O)N1 (stereo not drawn)	1.5	·
Cn1cc(S(=O)(=O)N2CCOCC2)cc1C(=O)Nc1cccnc1	0.81	·
Cc1ccc(-c2n[nH]c(=O)c(Cc3ccccc3)n2)cc1	0.51	·
COc1ccc2[nH]c3c(c2c1)CCn1c-3nc2sc3c(c2c1=O)CCCCC3	2.6	-3.5
O=c1c(-c2cccc(Cl)c2)c(C(F)(F)F)oc2c(CN3CCOCC3)c(O)ccc12	-0.24	-3.3
O=C(Nc1cccc(Br)c1)N1CCOc2ccccc21	1.8	·
Cc1nc2c(c(C)c1CCC(=O)NCCCN1CCOCC1)c(=O)n(C)c(=O)n2C	1.6	-0.25
Fc1nc(F)c2c(c1F)Oc1ccccc1O2	·	-0.71
CN1C(=O)c2cc(NC(=O)CC3CCCCC3)ccc2N2CCN=C12	1.2	·
Cc1ccc(NNC(=O)c2ccccc2)c(C)c1	·	0.62
O=C(Nc1nc2ccc(S(=O)(=O)N3CCCCC3)cc2s1)c1cncc(Br)c1	0.23	·
Cc1ccc(S(=O)(=O)[C@H]2CS(=O)(=O)C[C@@H]2N2CCN(c3ccccc3)CC2)cc1	0.34	-1.3
O=C1CCc2cc(S(=O)(=O)Nc3ccc4c(c3)OCO4)cc3c2N1CCC3	0.06	·
O=c1nc(N2CCOCC2)nc2n1CCO2	1.6	0.14
Nc1nc(N2CCN(Cc3ccccc3)CC2)nc(N2CCCC2)c1[N+](=O)[O-]	0.6	·
CC(C)CC1(C(=O)O)NC(c2ccc(Cl)cc2)C2C(=O)N(c3ccc(F)cc3)C(=O)C21 (stereo not drawn)	-0.2	-0.37
Cc1ccc2c(N)c(C(N)=O)sc2n1	0.13	-0.5
O=C(CSc1c2c(nc3cc(Cl)ccc13)CCCC2)Nc1nccs1	0.16	-1.4
CCOc1ccc(C(=O)CC2(O)C(=O)N(CCc3ccccc3)c3ccc(Br)cc32)cc1 (stereo not drawn)	1.3	-1.4
CN(C)S(=O)(=O)c1ccc2c(c1)N(CC(=O)NC1CCCCC1)C(=O)C1CCCCN21 (stereo not drawn)	1.8	·
CC(C)(C)NS(=O)(=O)c1ccc2c(c1)oc(=O)c1cc(S(=O)(=O)NC(C)(C)C)ccc12	-0.2	-0.91
c1coc(-c2nc(-c3ccc4c(c3)nnn4C3CCCC3)no2)c1	0.48	·
O=C(CSc1nnc2ccccn12)N1CCOCC1	·	-0.73
Cc1ccc(CNS(=O)(=O)c2c(C(=O)N3CCCCC3)c(C)n(C)c2C)o1	-0.45	·
O=C(Nc1ccc(F)c(Cl)c1)c1cc2ccc3cccnc3c2[nH]1	0.84	·
COc1ccc(Oc2ncccc2NC(=O)c2ccco2)cc1	·	-1.9
COc1ccc(S(=O)(=O)N2CCn3c2nc2ccccc23)cc1	0.44	-1.2
O=c1cc(CN2CCN(Cc3ccccc3Cl)CC2)nc2sccn12	0.34	·
Cc1cc(=O)[nH]c2c1c(C)nn2C	·	-0.84
